Source: PubChem BioAssay (Johns Hopkins Ion Channel Center)
KCNQ2 inh = KCNQ2 channel blockers in CHO-K1 cells – cell-based, FluxOR thallium flux, B-score, primary screen (AID 2156); O88943; 20 min; active compounds read low; only compounds with negative scores are shown here; some inactives read as strong as hits; B-score at 10 µM; 310,000 compounds, 1.1% hits;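 active means fluorescence ratio B-score at most minus 3 library SDs, with starting brightness B-score within 2 library SDs, cut at about -5.5 in these data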
Target sequence (O88943 whole entry, looked up): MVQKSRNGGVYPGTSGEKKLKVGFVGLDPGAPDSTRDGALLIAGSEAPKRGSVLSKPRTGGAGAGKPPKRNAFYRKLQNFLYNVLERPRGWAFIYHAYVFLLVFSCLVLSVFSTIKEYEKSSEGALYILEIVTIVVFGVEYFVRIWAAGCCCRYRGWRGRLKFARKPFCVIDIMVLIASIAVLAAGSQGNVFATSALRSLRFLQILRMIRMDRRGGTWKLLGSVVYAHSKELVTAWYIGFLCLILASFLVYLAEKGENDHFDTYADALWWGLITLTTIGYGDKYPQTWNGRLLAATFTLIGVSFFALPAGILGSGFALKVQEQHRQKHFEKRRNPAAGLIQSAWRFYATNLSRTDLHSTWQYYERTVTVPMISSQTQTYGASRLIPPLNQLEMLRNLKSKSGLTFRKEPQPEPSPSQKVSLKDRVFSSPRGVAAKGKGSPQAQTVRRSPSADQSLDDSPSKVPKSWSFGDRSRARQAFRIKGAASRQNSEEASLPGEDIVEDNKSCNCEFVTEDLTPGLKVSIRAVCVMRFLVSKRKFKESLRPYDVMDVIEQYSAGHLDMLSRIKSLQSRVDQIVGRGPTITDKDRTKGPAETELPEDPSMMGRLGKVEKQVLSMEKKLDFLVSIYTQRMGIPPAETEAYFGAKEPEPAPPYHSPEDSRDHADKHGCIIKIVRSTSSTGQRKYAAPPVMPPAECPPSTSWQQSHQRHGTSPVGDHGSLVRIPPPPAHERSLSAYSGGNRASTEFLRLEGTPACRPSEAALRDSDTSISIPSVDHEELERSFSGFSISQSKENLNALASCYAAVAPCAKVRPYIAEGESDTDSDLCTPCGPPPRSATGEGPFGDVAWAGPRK
KCNQ2 inh baseline = recorded beside KCNQ2 inh, whose call it bears; B-score; measured here: initial fluorescence intensity artifact check;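 brightness before thallium and not channel activity; 0 = typical well and far values either way flag optical interference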
The depositor's hits bear a star; i = inactive. A portion of the library; count on the stated rates, not on these rows.

Each structure is followed by: KCNQ2 inh	KCNQ2 inh baseline
OCC1(CCOc2ccccc2)CCN(Cc2ccc3cccc(F)c3n2)CC1
    i	-0.66
CCS(=O)(=O)c1ccc(O)c(NC(=O)Nc2ccccc2)c1
    i	0.32
O=C(N/N=C/c1ccccn1)NC12CC3CC(CC(C3)C1)C2
    i	0.01
COC(=O)NC1CSCC1OC(=O)CN1C(=O)c2ccccc2C1=O (stereo unspecified)
    i	1.36
O=C(O)c1ccc(CSc2ncn[nH]2)cc1
    i	0.11
CC(C)OC(=O)c1cn(-c2ccccc2)nc1-c1ccco1
    i	-0.2
COC(=O)Cn1c2c(c3cc(C)ccc31)CCCC2
    i	-0.22
CN(c1ccc(C(=O)NC2CCCC2)cc1)S(=O)(=O)c1ccc(Cl)cc1
    i	-1.27
CN(C)c1cc[nH]c(=O)c1C#N
    i	-0.02
CCOc1c(C(N)=O)c(-c2ccccc2)c2c(=O)[nH]c3ccccc3n12
    i	2.12
COc1ccccc1CN1C(=O)[C@H]2Cc3c([nH]c4ccccc34)C(C)(C)N2C1=O
    i	1.39
Cc1ccccc1C(=O)NC(CC(C)C)C(=O)N1CCN(c2ccccc2)CC1 (stereo unspecified)
    i	-0.75
COC(CNC(=O)c1ccc2c(c1)nc(C)n2-c1cccc(C)c1)OC
    i	0.51
Cc1nc(Sc2ccc(Cl)cc2)c(C#N)c(C)c1[N+](=O)[O-]
    i	0.96
O=C(CC(=O)Nc1ccccc1C(=O)O)NNC(=O)Cc1ccccc1
    i	0.67
CCCCC(C(=O)OCC(=O)c1ccc(OC)cc1)N1C(=O)c2ccccc2C1=O (stereo unspecified)
    i	-0.71
CC(C)Cn1cc(C(=O)NCCCOC(C)C)c2c3ccccc3n(C)c2c1=O
    i	1.43
CC(C)N(C(C)C)S(=O)(=O)c1ccc(N2CCc3ccccc3C2)nc1
    i	0.87
Cc1ccc(N=Cc2c(O)n(-c3cc(Cl)ccc3N3CCOCC3)c(=O)c3ccccc23)cc1C
    i	3.09
COc1ccc(Cl)cc1NC(=O)CCc1nnc2ccc(N3CCC4(CC3)OCCO4)nn12
    i	0.46
COc1cc2cnncc2cc1OC
    i	1.07
CS(=O)(=O)c1ccc(Cl)c(NC(=O)CSc2nc3ccccc3c(=O)n2Cc2ccco2)c1
    i	0.52
Cc1ccc(S(=O)(=O)Nc2cnn(-c3ccccc3)c(=O)c2Cl)cc1
    i	1.22
CN(C)S(=O)(=O)c1cc(NC(=O)CSc2ncc(C(F)(F)F)cc2Cl)ccc1Cl
    i	-1.58
COc1ccccc1C(=O)N/C(=C\c1ccccc1)C(=O)NCc1ccco1
    i	0.35
O=C(O)CC(Cc1ccc(Cl)cc1)C(=O)Nc1ccccc1 (stereo unspecified)
    i	1.26
Cc1ccc(NC(=O)Cc2sc(C)nc2-c2ccc(C)cc2)cc1
    i	0.55
CCN(CC)S(=O)(=O)c1cc(C(=O)Nc2ccc(Cl)cn2)ccc1C
    i	1.05
CN(C)S(=O)(=O)N1CCN(C(=O)c2ccccc2)CC1
    i	1.11
COc1ccccc1OCC(=O)NCC1CCCCC1
    i	-2.43

Single records, as listed above. Order of screens: KCNQ2 inh	KCNQ2 inh baseline
`COC(=O)NC1CSCC1OC(=O)CN1C(=O)c2ccccc2C1=O` (stereo unspecified) in the list: i	1.36
`CC(C)N(C(C)C)S(=O)(=O)c1ccc(N2CCc3ccccc3C2)nc1` in the list: i	0.87
`CCN(CC)S(=O)(=O)c1cc(C(=O)Nc2ccc(Cl)cn2)ccc1C` in the list: i	1.05

(more compounds)
Each structure is followed by: KCNQ2 inh	KCNQ2 inh baseline
COc1ccc(C2N(Cc3ccccc3)CCN2Cc2ccccc2)cc1[N+](=O)[O-]
    i	0.87
Cc1ccc2nc(NC(=O)CN(C)S(=O)(=O)c3cccc4nsnc34)sc2c1
    i	0.87
CCOC(=O)C1=C(C)N=C2SC(C(=O)OC)=CC(=O)N2C1c1cccc(OC)c1 (stereo unspecified)
    i	3.22
CSc1nc(O)c(C2OC(=O)c3ccccc32)c(=O)[nH]1 (stereo unspecified)
    i	0.28
COc1ccc(Cl)cc1NC(=O)CN1CCN(C(=O)N2CCOCC2)CC1
    i	0.26
COc1ccc(NS(=O)(=O)c2ccc(/C=C/C(=O)O)cc2)cc1S(=O)(=O)N1CCOCC1
    i	1.2
Cc1ccc(N(CC(=O)NC(C)c2ccccc2)S(=O)(=O)c2c(C)n[nH]c2C)cc1 (stereo unspecified)
    i	-1.5
COc1cc(/C=N/Nc2snc(SC)c2C#N)ccc1O
    i	-1.34
O=C(NC(Cc1ccccc1)C(=O)O)/C(=C\c1ccc([N+](=O)[O-])cc1)NC(=O)c1ccco1 (stereo unspecified)
    i	-0.22
COc1cc(CN(C(=S)NCC(=O)N2CCCC2)C2CCCC2)cc(OC)c1OC
    i	-0.01
Cc1ccc(NC(=S)NNC(=O)c2ccc(N3CCOCC3)c([N+](=O)[O-])c2)cc1Cl
    i	0.99
O=C(NCc1cccnc1)c1ccc2c(=O)n(CCCN3CCCC3=O)c(=S)[nH]c2c1
    i	2.56
O=C(N/N=C/c1cc(O)ccc1Br)c1cccnc1
    i	1.47
CCNc1c(NS(=O)(=O)c2ccc(F)c(Cl)c2)c(=O)oc2ccccc12
    i	-1.15
CCN1CCN(C(=S)NC(CC(=O)c2ccccc2)c2ccccc2)CC1 (stereo unspecified)
    i	0.63
CC1c2cc3c(cc2CCN1C(=O)c1cccc(F)c1)OCCCO3 (stereo unspecified)
    i	0.08
COc1ccc(CNC(=O)CC(C)c2ccccc2)cc1 (stereo unspecified)
    i	1.11
NS(=O)(=O)c1ccc(CCNC(=O)C(=O)NCC2OCCN2S(=O)(=O)c2cccs2)cc1 (stereo unspecified)
    i	1.55
COc1nc2ccc(C)cc2cc1-c1noc(-c2ccccc2)n1
    i	-0.06
CCCC(C)NC(=O)c1ccc(OCc2ccc(Cl)cc2)c(OC)c1 (stereo unspecified)
    i	2.73
CCOC(=O)c1c(NC(=O)CSc2nnc(C)s2)sc2c1CCC(C)C2 (stereo unspecified)
    i	-0.31
O=C(Cn1ncn2cccc2c1=O)N1CCCCC1
    i	0.47
O=[N+]([O-])c1ccccc1NC(=S)N/N=C/c1ccc(O)c(O)c1
    i	-0.51
O=C(Cn1nnc(-c2ccc(F)cc2)n1)Nc1ccc2c(c1)OCCO2
    i	-1.29
NS(=O)(=O)c1ccc(Nc2ncccc2[N+](=O)[O-])cc1
    i	-1.18
CN(C)S(=O)(=O)c1ccc(Cl)c(NC(=O)CN2CCC(Cc3ccccc3)CC2)c1
    i	0.46
C/C(=N\N1CCN(c2ccccc2)CC1)c1ccccc1O
    i	-0.99
CC(=O)Nc1ccc(OCCOc2ccc(/C=C3\C(=N)N4N=C(C(C)C)SC4=NC3=O)cc2)cc1
    i	-1.54
COc1ccc(OCC(=O)Nc2nccs2)cc1
    i	0.01
Cc1ccccc1-c1nc(Cc2ccccc2)no1
    i	1.07

Four neighbouring records already listed, quoted:
Each structure is followed by: KCNQ2 inh	KCNQ2 inh baseline
CCOC(=O)C1=C(C)N=C2SC(C(=O)OC)=CC(=O)N2C1c1cccc(OC)c1 (stereo unspecified)
    i	3.22
CSc1nc(O)c(C2OC(=O)c3ccccc32)c(=O)[nH]1 (stereo unspecified)
    i	0.28
COc1ccc(Cl)cc1NC(=O)CN1CCN(C(=O)N2CCOCC2)CC1
    i	0.26
COc1ccc(NS(=O)(=O)c2ccc(/C=C/C(=O)O)cc2)cc1S(=O)(=O)N1CCOCC1
    i	1.2

The list continues.
Each structure is followed by: KCNQ2 inh	KCNQ2 inh baseline
COc1cc(/C=N/N(C)C)ccc1OC(=O)c1ccco1
    i	0.91
O=C(NCc1ccco1)c1ccc(Cn2c(=O)c3sccc3n(Cc3cccc(F)c3)c2=O)cc1
    i	-0.33
COc1ccc(C2CC(=O)c3cnc(N)nc3C2)c(OC)c1 (stereo unspecified)
    i	-0.23
Cc1ccc[n+](CC(=O)Nc2c(Cl)cc(Cl)cc2Cl)c1
    i	-0.45
C=C(C)Cc1c(C)c(C#N)c2nc3ccccc3n2c1N1CCCCC1
    i	0.02
c1ccc(-c2ccc3c(n2)CCCO3)cc1
    i	-0.29
CC(C)NC(=O)c1ccccc1NC(=O)Cc1ccc(Br)cc1
    i	0.74
O=c1c2ccccc2nc2n1C(CSc1ccc(F)cc1)CS2 (stereo unspecified)
    i	-0.64
CCOC(=O)N1CCN(S(=O)(=O)c2ccc(F)c(C(=O)Nc3cc(C)cc(C)c3)c2)CC1
    i	-0.02
O=C1CSC(=S)N1c1cccc(O)c1
    i	1.69
Clc1cc(Cl)cc(Nc2ncn[nH]2)c1
    i	-3.37
O=C(COC(=O)c1n[nH]c2ccccc12)NC(=O)NC1CCCCC1
    i	0.34
O=C1CC(N2CCC(c3nc4ccccc4o3)CC2)C(=O)N1c1ccc(Cl)c(C(F)(F)F)c1 (stereo unspecified)
    i	1.67
Clc1ccccc1Nc1nc(-c2cccnc2)cs1
    i	0.47
CC1(C)CC(C(CCN(Cc2ccccc2)C(=O)c2ccco2)c2ccc(F)cc2)CCO1 (stereo unspecified)
    i	-0.09
CCCN1CCN(CC(=O)Nc2nc3ccccc3s2)CC1
    i	-0.73
Cc1ccc(N(CC(=O)NC2CCCCC2)C(=O)Cn2nnc(-c3ccc(C)o3)n2)cc1
    i	0.02
O=C(NCCCO)c1nnc(Cc2c(F)cccc2Cl)o1
    i	-0.49
O=C(CN1C(=O)NC2(CCCC2)C1=O)OCCOc1ccc(F)cc1
    i	0.56
CC(=O)NS(=O)(=O)c1ccc(NC(=O)c2cc(-c3ccc(C)cc3)nc3ccccc23)cc1
    i	0.76
O=C(CCl)N1N=C(c2ccco2)CC1c1cccs1 (stereo unspecified)
    i	1.8
CCOC(=O)c1cc2cc(CC(=O)c3ccc(OCC)cc3O)ccc2o1
    i	-0.06
CN(C)S(=O)(=O)c1ccc(Cl)c(NC(=O)COC(=O)[C@@H]2CCCN2C(=O)c2cccs2)c1
    i	-0.5
CC(OC(=O)COc1ccc(Nc2ccccc2)cc1)C(=O)N(C)c1ccccc1 (stereo unspecified)
    i	0.33
COc1ccc(S(=O)(=O)N2CCOCC2)cc1NC(=O)COc1ccccc1OC
    i	0.66
O=C(COc1ccccc1[N+](=O)[O-])c1ccccc1
    i	-2.09
Cc1ccccc1-n1ncc(C(C)NC(=O)c2ccco2)c1C (stereo unspecified)
    i	-0.02
CCc1nc2ccc(C(=O)N3CCN(c4cccc(C(F)(F)F)c4)CC3)cc2nc1CC
    i	1.9
CCC(C)NC(=O)CCn1c(=O)c2cccn2c2ccc(F)cc21 (stereo unspecified)
    i	-0.18
COc1ccccc1N1CCN(/N=C/c2cccc(OC)c2OC)CC1
    -7.28*	-1.25*

Some of these compounds in order of their number in KCNQ2 inh baseline, falling.
Structure	KCNQ2 inh	KCNQ2 inh baseline
Cc1ccccc1-c1nc(Cc2ccccc2)no1	i	1.07
COc1ccc(Cl)cc1NC(=O)CCc1nnc2ccc(N3CCC4(CC3)OCCO4)nn12	i	0.46
O=C(NC(Cc1ccccc1)C(=O)O)/C(=C\c1ccc([N+](=O)[O-])cc1)NC(=O)c1ccco1 (stereo unspecified)	i	-0.22

The results go on.
Each structure is followed by: KCNQ2 inh	KCNQ2 inh baseline
CN(C)Cc1c(C(=O)N/N=C/CCc2ccccc2)nnn1-c1nonc1N
    i	-0.65
CC(=O)Oc1ccc(/C=C(\NC(=O)c2ccco2)C(=O)Nc2ccc(C(C)=O)cc2)cc1
    i	-0.4
COC(=O)c1ccc(CNC(=O)C2CCC(=O)N(CCc3ccccc3)C2)cc1 (stereo unspecified)
    i	0.57
Cc1ccc(NC(=O)c2oc3ccccc3c2C)c([N+](=O)[O-])c1
    i	0.54
CCc1ccc(OC(=O)c2cccnc2)cc1
    i	-0.01
CCc1c(C2(O)CCCCC2)[nH]c2cc(C(F)(F)F)ccc12
    i	0.58
CC(OC(=O)c1cccc(NS(C)(=O)=O)c1)C(=O)Nc1ccc(N2CCOCC2)cc1 (stereo unspecified)
    i	0.6
CCOc1ccc(NC(=O)C/C(N)=N/O)cc1
    i	-0.03
CCOC(=O)N1CCN(C(=O)COc2cccc3c2CCN(Cc2ccccc2C)C3=O)CC1
    i	-0.13
O=C(CSc1ncnc2nc[nH]c12)N1CCN(c2ccccc2)CC1
    i	0.04
CCCOn1c(OCC(C)C)nc2ccccc2c1=O
    i	0.85
Oc1ccc2ccccc2c1CNc1ccccn1
    i	0.02
Cc1ccc(OCC(=O)O)c(-n2nc3ccccc3n2)c1
    i	0.37
CCOc1ccc(NC(=S)N2CCC(NC(=O)c3ccco3)CC2)cc1
    i	-1.95
C[N+]1(CC(=O)NNc2c3ccccc3nc3ccccc23)CCOCC1
    i	-0.21
CNC(=O)c1ccc(NC(=O)/C=C/c2cccc(F)c2)cc1
    i	0.01
Cc1cc(C(=O)NC(C)C2CC2)c(Cl)cc1Cl (stereo unspecified)
    i	-0.2
COc1ccc(C(=O)COC(=O)C2CCCN2C(=O)C23CC4CC(CC(C4)C2)C3)cc1 (stereo unspecified)
    i	0.03
CCc1ccccc1N(CC(=O)N1CCN(c2ccccc2F)CC1)S(C)(=O)=O
    i	0.91
CCOC(=O)C1CCCN(C(=O)CN(c2ccc(OC)cc2)S(=O)(=O)c2c(C)noc2C)C1 (stereo unspecified)
    i	-2.06
COc1ccc(S(=O)(=O)N2CCN(C(=O)N(C)C)C2C)cc1 (stereo unspecified)
    i	0.67
COc1cccc(OCc2cc(C(=O)N(Cc3ccccc3)CC3CC3)no2)c1
    i	0.07
CCOc1ccccc1NC(=O)CCCCCN1C(=O)[C@@H]2Cc3ccccc3CN2C1=O
    i	-2.32
O=C(Nc1ccc(O)cc1)N1CCOCC1
    i	0.85
